Source: PubChem BioAssay
VACV Venus inh: inhibitors of vaccinia virus (Venus reporter). AID 720580. Potency, µM (doses to about 36.5 µM), for the others: at the highest dose activity change, negative = inhibition, usual class: inhibitors. Vaccinia virus Venus reporter expression, fluorescence. 330,000 compounds, 0.46% hits; active means well fitted inhibition curve with a large enough effect; inconclusive means small, poorly fitted or top-dose-only effect; inactive means no such curve, though single readings can be large or run the other way; tested in A549 cells; further: nearly all actives have a fitted effect of over 30% in size; inactives centre near -10
Vaccinia mCherry: inhibitors of vaccinia virus infection (mCherry reporter signal); Vaccinia virus mCherry reporter infection, fluorescence; about a quarter of the inactives have no number; Potency, µM (top dose mostly 36.5 µM), without a hit: top-dose activity change, negative = inhibition, usual class: inhibitors; 310,000 compounds, 0.63% hits; AID 720579; active = well fitted inhibition curve with a large enough effect; inconclusive = small, poorly fitted or top-dose-only effect; inactive = no such curve, though single readings can be large or run the other way; tested in A549 cells; further: nearly all actives have a fitted effect of over 35% in size; inactives centre near -10
An asterisk follows results filed as active; [ ] = dose if it differs, or a comment. On the % scale 0 is the no-effect control and ±100 the full control effect; potency means the concentration at half of the fitted maximal effect.

The opening 3 records (preview)
How did CCOC(=O)[C@@H]1[C@H]2COc3cc(OC)ccc3[C@@H]2N2C(=O)N(c3ccc(Cl)cc3)C(=O)[C@]12C do in these assays?
VACV Venus inh: -16.0%; Vaccinia mCherry: -0.1%

Results for CC(NC(=O)c1ccccc1Br)c1nnc(SCC(=O)NC2CCCCC2)n1C (stereo not drawn) ?
VACV Venus inh: -7.6%; Vaccinia mCherry: inactive

What do the screens show for `O=C1NC(=O)C(=Cc2ccco2)S1`?
VACV Venus inh: -0.8%; Vaccinia mCherry: -24.7%

The list itself, from the start:
How did CCOC(=O)[C@@H]1[C@H]2COc3cc(OC)ccc3[C@@H]2N2C(=O)N(c3ccc(Cl)cc3)C(=O)[C@]12C do in these assays?
VACV Venus inh: -16.0%; Vaccinia mCherry: -0.1%

Results for CC(NC(=O)c1ccccc1Br)c1nnc(SCC(=O)NC2CCCCC2)n1C (stereo not drawn) ?
VACV Venus inh: -7.6%; Vaccinia mCherry: inactive

What do the screens show for `O=C1NC(=O)C(=Cc2ccco2)S1`?
VACV Venus inh: -0.8%; Vaccinia mCherry: -24.7%

What do the screens show for `O=C1NC[C@H](CCCCN2C[C@H](Cc3ccc(O)cc3)N(Cc3ccccc3)C(=O)C2=O)N(CCc2ccccc2)C1=O`?
VACV Venus inh: -1.3%; Vaccinia mCherry: 1.5%

What do the screens show for `O=C(Nc1c(C(=O)c2ccc(Cl)cc2)oc2ccccc12)c1cc(=O)c2ccccc2o1`?
VACV Venus inh: -1.8%; Vaccinia mCherry: -12.0%

What do the screens show for `O=C(Nc1ccc(Cl)cc1F)c1cc(S(=O)(=O)N2CCCCC2)ccc1F`?
VACV Venus inh: -10.1%; Vaccinia mCherry: -10.3%

Results for Clc1cccc(CSc2ccc(-c3cccs3)nn2)c1 ?
VACV Venus inh: -8.6%; Vaccinia mCherry: -12.5%

How did CCOC(=O)N1CCN(C(=O)c2ccc3c(=O)n(CCc4ccc(OC)c(OC)c4)c(=O)[nH]c3c2)CC1 do in these assays?
VACV Venus inh: -3.2%; Vaccinia mCherry: -10.1%

Results for CCOC(=O)Cn1c(=O)oc2ccc(C)cc21 ?
VACV Venus inh: 2.8%; Vaccinia mCherry: -1.3%

How did COc1ccc(NC(=O)c2c(-c3ccccc3)c(-c3ccccc3)nn(C)c2=O)cc1OC do in these assays?
VACV Venus inh: 0.5%; Vaccinia mCherry: 3.7%

Results for Cc1cc(C)c(C(=O)CN2C(=O)NC3(CCCCCC3)C2=O)cc1C ?
VACV Venus inh: -7.7%; Vaccinia mCherry: inactive

Results for CC(C)NC(=O)Nc1ccc2c(c1)C(=O)N([C@H](C)CO)C[C@H](C)[C@@H](CN(C)C(=O)Nc1ccc(C(F)(F)F)cc1)O2 ?
VACV Venus inh: -4.0%; Vaccinia mCherry: inactive

How did CSCCC(NC(=O)c1ccc([N+](=O)[O-])cc1Cl)C(=O)OCC(=O)N1CCN(C(C)=O)CC1 (stereo not drawn) do in these assays?
VACV Venus inh: -3.8%; Vaccinia mCherry: -9.3%

How did CCOC(=O)C1=CCC(C(C)(C)C)N(S(=O)(=O)c2ccc(C)cc2)C1 (stereo not drawn) do in these assays?
VACV Venus inh: -14.2%; Vaccinia mCherry: inactive

How did Cc1ccc(C(=O)Nc2ccc(Cl)cn2)cc1 do in these assays?
VACV Venus inh: -28.5%; Vaccinia mCherry: inconclusive

Results for Cc1n[nH]c(C)c1CCC(=O)N/N=C/c1c[nH]c2ccccc12 ?
VACV Venus inh: -6.0%[7.34 µM]; Vaccinia mCherry: -2.8%[7.34 µM]

How did O=C(Nc1ccc(F)c(Cl)c1)c1ccc2nc([C@@H]3O[C@H](CO)[C@H](O)[C@H](O)[C@H]3O)[nH]c2c1 do in these assays?
VACV Venus inh: 1.2%; Vaccinia mCherry: 37.4%[activator]

How did Nc1nc(NC(=O)Cc2ccccc2)nn1-c1ccccc1 do in these assays?
VACV Venus inh: -9.7%; Vaccinia mCherry: inconclusive

Results for CN(Cc1ccccc1)c1nc2c(c(=O)[nH]c(=O)n2C)n1CCOc1ccccc1 ?
VACV Venus inh: -26.1%; Vaccinia mCherry: -9.9%

Results for CC(=O)/C=C/c1ccc2c(c1)S(=O)(=O)N(C1CCCC1)[C@H]2CC(C)=O ?
VACV Venus inh: -8.0%; Vaccinia mCherry: -6.1%

What do the screens show for `CCCc1cc(=O)[nH]c(SCC(=O)Nc2cc(S(=O)(=O)N(CC)c3ccccc3)ccc2Cl)n1`?
VACV Venus inh: -9.9%; Vaccinia mCherry: inactive

What do the screens show for `CCN(CC)CCNS(=O)(=O)c1ccc2[nH]cc(C(=O)O)c(=O)c2c1`?
VACV Venus inh: -5.9%; Vaccinia mCherry: -14.1%

Results for CCOCCCN(CCC#N)S(=O)(=O)c1ccc(S(=O)(=O)N2CCCC2)cc1 ?
VACV Venus inh: -12.4%; Vaccinia mCherry: -11.2%

Results for COc1ccccc1NC(=O)NCCCl ?
VACV Venus inh: 10µM*; Vaccinia mCherry: 10µM*

Results for N=c1nc(-c2ccccc2)n(-c2ccccc2)s1 ?
VACV Venus inh: -14.0%; Vaccinia mCherry: 21.8%

How did COc1cc(C(N)=O)cc(Cl)c1OCc1ccccc1 do in these assays?
VACV Venus inh: -14.0%; Vaccinia mCherry: inactive

What do the screens show for `Cc1cccc(C)c1NC(=O)CN(Cc1ccc(Br)cc1)S(=O)(=O)c1ccccc1`?
VACV Venus inh: -7.4%; Vaccinia mCherry: inactive

Results for O=C(C1=NN(c2ccccc2)C2C(=O)N(c3ccc(Cl)cc3)C(=O)C12)c1ccccc1 (stereo not drawn) ?
VACV Venus inh: -8.9%; Vaccinia mCherry: -6.0%

How did Cc1ccc(F)cc1NC(=O)/C=C/c1ccc(S(=O)(=O)N2CCOCC2)cc1 do in these assays?
VACV Venus inh: -13.9%; Vaccinia mCherry: -17.8%

Results for Cc1cccc(NC(=S)N2CCC(C(N)=O)(N3CCCCC3)CC2)c1C ?
VACV Venus inh: -9.4%; Vaccinia mCherry: inactive

How did COc1ccc(-c2ccc3[nH]c4c(c3c2)CCN2C[C@@H]([C@H](C)OC(=O)Nc3cc(Cl)cc(Cl)c3)[C@@H](N(C)C(=O)Nc3cc(Cl)cc(Cl)c3)C[C@@H]42)cc1 do in these assays?
VACV Venus inh: -0.9%; Vaccinia mCherry: inconclusive

What do the screens show for `COC(=O)c1scc(S(=O)(=O)C(C)(C)C)c1N`?
VACV Venus inh: -6.5%; Vaccinia mCherry: -12.8%

Results for CNc1nc(-c2c(C)n(C)c3ccc(OC)cc23)cs1 ?
VACV Venus inh: -2.0%; Vaccinia mCherry: 14.8%

How did O=C1CCCC2C3CCCN4CCCC(CN12)C34 (stereo not drawn) do in these assays?
VACV Venus inh: -1.1%; Vaccinia mCherry: -8.0%

How did Cc1ccc(C(C(=O)NC2CCCCC2)N(CC2CCCO2)C(=O)CCCC(=O)Nc2ccccn2)cc1 (stereo not drawn) do in these assays?
VACV Venus inh: 5.5%; Vaccinia mCherry: -7.5%

How did Cc1ccc(NP(=O)(Nc2ccc(C)cc2)Oc2ccccc2)cc1 do in these assays?
VACV Venus inh: -21.2%; Vaccinia mCherry: -5.6%

What do the screens show for `COC(C[C@H]1O[C@H]1[C@H](O)[C@@H](C)OCc1ccccc1)OC`?
VACV Venus inh: -11.2%; Vaccinia mCherry: -23.0%

What do the screens show for `Cc1cc(N(CC(=O)O)S(C)(=O)=O)ccc1Br`?
VACV Venus inh: -14.3%

How did Cc1ccc(NC(=O)C2c3ccccc3Oc3ccccc32)nc1 do in these assays?
VACV Venus inh: -7.1%; Vaccinia mCherry: inactive

How did CCOC(=O)c1ccccc1NS(=O)(=O)c1ccc(C)cc1 do in these assays?
VACV Venus inh: inconclusive; Vaccinia mCherry: inconclusive

Results for Cc1sc2ncnc(NCc3ccccc3)c2c1C ?
VACV Venus inh: inconclusive

What do the screens show for `CC(C)(C)c1ccc(/C=N/NC(=S)NCc2ccccc2)cc1`?
VACV Venus inh: -18.1%; Vaccinia mCherry: -10.2%

How did O=C(c1cccc(F)c1)N1CCN=C1SCc1cccnc1 do in these assays?
VACV Venus inh: -0.9%; Vaccinia mCherry: -11.7%

What do the screens show for `C/C(CC(=O)Nc1ccccn1)=N\NC(=O)c1cccc(C)c1`?
VACV Venus inh: 1.3%; Vaccinia mCherry: 0.4%

Results for CC1=NN(C(=O)COc2ccc(C)c(C)c2)C(O)(c2ccccc2)C1 (stereo not drawn) ?
VACV Venus inh: -8.3%; Vaccinia mCherry: -18.7%

Results for CC(=O)N1CCN(S(=O)(=O)c2cccc(C(=O)NCCc3ccc(Cl)cc3)c2)CC1 ?
VACV Venus inh: -17.0%; Vaccinia mCherry: -4.1%

How did CCCCn1c(SCC(=O)Nc2cc(C)on2)nnc1-c1ccco1 do in these assays?
VACV Venus inh: -0.5%; Vaccinia mCherry: -15.1%

What do the screens show for `CC1CCc2onc(C(=O)N3CCN(c4ccccc4)CC3)c2C1` (stereo not drawn)?
VACV Venus inh: -13.2%; Vaccinia mCherry: inactive

What do the screens show for `CN(C)CCNC(=O)c1ccc2nc(CCc3ccccc3)oc2c1`?
VACV Venus inh: 6.3%; Vaccinia mCherry: -10.0%

How did CC1(C(=O)NCc2ccc(F)c(F)c2)Cc2c(-c3cccc(C(N)=O)c3)ccnc2O1 (stereo not drawn) do in these assays?
VACV Venus inh: -17.2%; Vaccinia mCherry: 4.7%

Results for COc1ccc(NC(=O)C(=O)NCCN2CCN(C(=O)c3ccco3)CC2)cc1 ?
VACV Venus inh: -2.3%; Vaccinia mCherry: -16.1%

What do the screens show for `O=C(CSc1ccc(C(F)(F)F)cc1[N+](=O)[O-])N1CCOCC1`?
VACV Venus inh: -13.3%; Vaccinia mCherry: inactive

Results for CN(Cc1nccs1)C(=O)CC1C(=O)NCCN1Cc1ccc(-c2ccccc2)cc1 (stereo not drawn) ?
VACV Venus inh: 1.9%[7.34 µM]; Vaccinia mCherry: -10.5%[7.34 µM]

How did CN1/C(=C\C(=O)COC(=O)c2nccnc2N)C(C)(C)c2ccccc21 do in these assays?
VACV Venus inh: -8.1%; Vaccinia mCherry: -7.3%

Results for CC(C)NC(=O)c1ccc2c3n(nc2c1)-c1ccccc1CO3 ?
VACV Venus inh: -21.3%; Vaccinia mCherry: inactive

Results for O=C(Nc1ccc2c3c(cccc13)CC2)c1cccc([N+](=O)[O-])c1 ?
VACV Venus inh: -6.4%; Vaccinia mCherry: -18.0%

Results for COc1cccc(NC(=O)C2(C)CCN2Cc2ccc(OC(C)C)cc2)c1 (stereo not drawn) ?
VACV Venus inh: 3.3%; Vaccinia mCherry: inactive

Results for CCCn1cc(CN2CCC(C(=O)Nc3cccc(-c4cscn4)c3)CC2)c(C)n1 ?
VACV Venus inh: -18.7%; Vaccinia mCherry: -7.3%

Results for CSCCC(C(=O)NC(C)(C)C)n1c(-c2ccc3c(c2)OCO3)nc2ccccc21 (stereo not drawn) ?
VACV Venus inh: -0.6%; Vaccinia mCherry: -13.8%

Results for Cc1ccc(CN2CCOc3ccc(CN4CCN(CCO)CC4)cc3C2)s1 ?
VACV Venus inh: -3.4%; Vaccinia mCherry: -1.0%

An excerpt from above in order of SMILES length, falling.
How did CC1(C(=O)NCc2ccc(F)c(F)c2)Cc2c(-c3cccc(C(N)=O)c3)ccnc2O1 (stereo not drawn) do in these assays?
VACV Venus inh: -17.2%; Vaccinia mCherry: 4.7%

Results for CSCCC(C(=O)NC(C)(C)C)n1c(-c2ccc3c(c2)OCO3)nc2ccccc21 (stereo not drawn) ?
VACV Venus inh: -0.6%; Vaccinia mCherry: -13.8%

Results for COc1cccc(NC(=O)C2(C)CCN2Cc2ccc(OC(C)C)cc2)c1 (stereo not drawn) ?
VACV Venus inh: 3.3%; Vaccinia mCherry: inactive

Results for Cc1ccc(CN2CCOc3ccc(CN4CCN(CCO)CC4)cc3C2)s1 ?
VACV Venus inh: -3.4%; Vaccinia mCherry: -1.0%

The listing continues.
What do the screens show for `C=CCNC(=O)NC(=O)COC(=O)c1nc2nccc(C)n2n1`?
VACV Venus inh: -9.0%; Vaccinia mCherry: -10.6%

Results for Cc1nnc2ccc(-c3ccc(NS(=O)(=O)c4ccc(F)cc4F)cc3)nn12 ?
VACV Venus inh: -10.7%; Vaccinia mCherry: -1.6%

What do the screens show for `O=C(CSc1nccn1Cc1ccccc1)Nc1ccc2c(c1)OCCO2`?
VACV Venus inh: -24.9%; Vaccinia mCherry: inactive

Results for COc1ccc(-c2nc(C)c(CCNC(=O)c3ccco3)s2)cc1 ?
VACV Venus inh: -10.6%; Vaccinia mCherry: -2.3%

Results for CN(Cc1ccccc1)C(=O)[C@@H]1CCCN1 ?
VACV Venus inh: -7.5%; Vaccinia mCherry: -9.2%

How did CCC(C)(c1ccc(C=O)s1)c1ccc(C=O)s1 do in these assays?
VACV Venus inh: -7.7%; Vaccinia mCherry: inactive

Results for Cc1cccc(C(=O)NCC(c2ccco2)N2CCc3ccccc32)c1 (stereo not drawn) ?
VACV Venus inh: -5.3%; Vaccinia mCherry: inconclusive

What do the screens show for `COc1ccc(CNC(=O)C/C(C)=N/NC(=O)C(c2ccccc2)c2ccccc2)cc1`?
VACV Venus inh: -8.5%; Vaccinia mCherry: inactive

Results for Cn1c(SCC(=O)N/N=C/c2ccc([N+](=O)[O-])s2)nnc1-c1ccc(Cl)cc1 ?
VACV Venus inh: -6.6%; Vaccinia mCherry: -2.4%

What do the screens show for `CC(C)c1ccc(NC(=O)c2cc(S(=O)(=O)N(C)C3CCCCC3)ccc2F)cc1`?
VACV Venus inh: -22.4%; Vaccinia mCherry: -25.8%

How did COc1ccc(C(C)=O)c2c(O)cccc12 do in these assays?
VACV Venus inh: 15.1%

How did CCN1C(=O)c2cccc3c(S(=O)(=O)NC(Cc4ccccc4)C(=O)O)ccc1c23 (stereo not drawn) do in these assays?
VACV Venus inh: -3.6%; Vaccinia mCherry: -25.4%
